VDR inhibitor: inhibitors of human vitamin D receptor; VDR-SRC2-3 peptide fluorescence polarization, 2 h; hit rate 0.93% among 400,000; AID 504847; Potency, µM, without a hit: max response, negative = inhibition, usual class: inhibitors; P11473; active means well fitted inhibition curve with a large enough effect; inconclusive means small, poorly fitted or top-dose-only effect, or another doubt; inactive means no such curve, though single readings can be large or run the other way; further: series mostly up to about 120 µM
Target sequence (P11473 whole entry, looked up): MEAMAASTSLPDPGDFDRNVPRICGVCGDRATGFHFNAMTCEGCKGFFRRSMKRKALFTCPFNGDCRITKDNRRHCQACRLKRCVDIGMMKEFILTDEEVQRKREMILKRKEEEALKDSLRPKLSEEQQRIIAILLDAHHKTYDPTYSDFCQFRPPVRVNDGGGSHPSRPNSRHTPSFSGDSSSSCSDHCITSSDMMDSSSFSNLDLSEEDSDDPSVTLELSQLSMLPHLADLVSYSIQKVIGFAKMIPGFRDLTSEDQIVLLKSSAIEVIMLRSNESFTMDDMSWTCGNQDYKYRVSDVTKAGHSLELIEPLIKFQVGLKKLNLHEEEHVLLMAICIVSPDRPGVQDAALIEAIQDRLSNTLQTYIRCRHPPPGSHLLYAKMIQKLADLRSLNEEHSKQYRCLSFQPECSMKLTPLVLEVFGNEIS
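Signal is fluorescence polarization, reporting how far test compounds block the interaction of VDR with the SRC2-3 coregulator peptide after a 2 h room-temperature incubation.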
Starred values were filed as active, the others as inactive; ? = inconclusive; & = joins results of further samples. On the % scale 0 is the no-effect control and ±100 the full control effect; potency means the concentration at half of the fitted maximal effect. Only part of the results is shown. The share of hits here may be higher or lower than overall.

| canonical_smiles | VDR inhibitor |
| --- | --- |
| C=CCN(C(=O)CCC(=O)Nc1cc(C)on1)C(C(=O)NC1CCCC1)c1ccc(OC)cc1OC (stereo not drawn) | -3% |
| Cc1ccc(SCn2nnc3ccccc3c2=O)c(C)c1 | 11% |
| CCOc1cc(/C=C/c2cc(C(=O)O)c3ccccc3n2)ccc1O | 2% |
| Cc1cc(NS(=O)(=O)c2ccc(NC(=O)c3cnc(Cl)c(Cl)c3)cc2)nc(C)n1 | -7% |
| CCOC(=O)C1=C(COC(=O)c2ccc([N+](=O)[O-])o2)NC(=O)NC1C (stereo not drawn) | 2% |
| CSc1ncccc1C(=O)OCC(=O)N(CC(C)C)C1CCS(=O)(=O)C1 (stereo not drawn) | -3% |
| Cn1cc(CCC(=O)NCc2ccc(Cl)cc2)c2ccccc21 | 10%&17% |
| CCCCNC(=O)Nc1c(C(=O)OCC)[nH]c2ccccc12 | 4% |
| CCN(CC)c1ccc(/C=N/NC(=O)Cc2cccs2)c(O)c1 | 0% |
| O=C(NS(=O)(=O)c1ccccc1)c1ccccc1O | -4% |
| COc1cccc(NC(=O)c2cc([N+](=O)[O-])ccc2NCc2cccnc2)c1 | 6% |
| COc1ccccc1C(=O)NNC(=O)c1ccccc1F | 16% |
| O=C(CSc1ccccc1Cl)N1CCOCC1 | 2% |
| COc1cc(C(=O)Nc2ccc3c(c2)OCCO3)ccc1OC(C)C | -19% |
| O=C(COc1cc2oc(=O)cc(-c3ccccc3)c2cc1Cl)NCC1CCC(C(=O)O)CC1 (stereo not drawn) | -15% |

| canonical_smiles | VDR inhibitor |
| --- | --- |
| NCCCCCc1nnc(SCC(=O)c2ccc(Cl)cc2)o1 | -27% |
| COc1cc(/C=C/C(=O)NCc2cccnc2)cc(OC)c1OC | 4% |
| Cc1cc([N+](=O)[O-])nn1CC(=O)NCCCn1ccnc1 | 6% |
| O=C(CCCN1C(=O)C2C3C=CC(C3)C2C1=O)N1CCN(c2ccccc2)CC1 (stereo not drawn) | -6% |
| COc1ccc(CC(=O)NC(c2ccccc2)c2ccc(C)cc2)c(OC)c1 (stereo not drawn) | 1% |
| O=C1/C(=C/c2ccc(O)cc2)SC(=S)N1CC1CCCO1 (stereo not drawn) | 8% |
| O=C(Nc1ccc2nc(-c3ccco3)c(-c3ccco3)nc2c1)NC1CC1 | 71µM* |
| Cc1c(C)n(CCc2ccccc2)c2ncnc(NCCCO)c12 | -8% |
| c1cncc(CNc2ncnc3sccc23)c1 | 11% |
| O=C(Nn1cnnc1)c1cc([N+](=O)[O-])cc([N+](=O)[O-])c1 | -20% |
| CCc1nc(-c2cc(S(=O)(=O)N3CCN(c4ccc(F)cc4)CC3)ccc2OC)no1 | 20% |
| CCCNC(=O)c1ccc2snnc2c1 | 3% |
| O=C(CCC1N=C2c3ccccc3N=C(SCc3ccccc3Cl)N2C1=O)N1CCN(c2ccccc2)CC1 (stereo not drawn) | 7% |
| COc1ccc(NC(=O)CSc2nc3c(c(=O)[nH]2)CCC3)cc1 | 10% |
| Cc1c(-c2ccc(Cl)cc2)c(=O)oc2c(CN3CCN(C)CC3)c(O)ccc12 | 23% |

| canonical_smiles | VDR inhibitor |
| --- | --- |
| O=C(NCc1cccnc1)C(=O)NCC1OCCCN1S(=O)(=O)c1ccc(F)cc1 (stereo not drawn) | -11% |
| CC(=O)Nc1ccc(NC(=O)Nc2ccc3c(c2)N(C)C(=O)CS3)cc1 | -16% |
| CCc1cc2c(=O)c(-c3nc4ccccc4n3C)c(C)oc2c(CN2CCOCC2)c1O | 15% |
| CC(OC(=O)C1CC1)C(=O)Nc1cccc(S(=O)(=O)N2CCOCC2)c1 (stereo not drawn) | -8% |
| Cc1cc(CN2CCCC(C(=O)Nc3cccc(-n4cccn4)c3)C2)cc(C)c1O (stereo not drawn) | -28% |
| C=CCN1CC(c2nc3ccccc3n2Cc2cccc3ccccc23)CC1=O (stereo not drawn) | -13% |
| O=C(CCNS(=O)(=O)c1ccc(Br)s1)N1CCN(c2ccccc2)CC1 | 1% |
| OCc1ccccc1 | -5% |
| COC(=O)Oc1ccc(/C=N/NC(=O)CN(c2ccccc2Br)S(C)(=O)=O)cc1OC | -11% |
| CCOCCCNCc1ccc(OC)c(OC)c1 | 0% |
| Cc1ccc(/C=C/C(=O)O)cc1S(=O)(=O)N1CCCCC1 | -2% |
| O=C(c1ccc(=O)[nH]c1)N1CCN(S(=O)(=O)c2ccc(Cl)cc2)CC1 | 1% |
| Fc1ccc(Nc2nc(SCc3cccc(F)c3)nc3ccccc23)cc1 | 11% |
| CCOC(=O)CCCCCN1C(=O)c2cccc3cccc(c23)C1=O | -1% |
| C=CCn1c(SCC(=O)Nc2c(C)n(C)n(-c3ccccc3)c2=O)nc2sc(C)c(C)c2c1=O | 3% |

| canonical_smiles | VDR inhibitor |
| --- | --- |
| Cc1ccc(CN2CC(C(=O)N3CCN(c4ccccc4O)CC3)CC2=O)cc1 (stereo not drawn) | -24% |
| CN(CCc1ccccn1)C(=O)c1nn2c(C(F)(F)F)cc(-c3ccco3)nc2c1Cl | 9% |
| Cc1ccc(C)c(OCc2nc3ccc(S(=O)(=O)Nc4c(C)n(C)n(-c5ccccc5)c4=O)cc3[nH]2)c1 | 9% |
| O=C(Nc1nccs1)c1ccc(COc2c(F)c(F)cc(F)c2F)o1 | 8% |
| COc1ccc(CCNC(=O)CCCn2nc(C)c([N+](=O)[O-])c2C)cc1OC | 5% |
| CCOC(=O)c1ccc(NC(=O)COc2cc3oc(=O)c(CC(C)O)c(C)c3cc2Cl)cc1 (stereo not drawn) | -5% |
| O=C(Nc1cccc(S(=O)(=O)NC2=NCCCCC2)c1)c1cc(-c2ccncc2)nc2ccccc12 | -23% |
| O=C(CN1CCN(C(=O)c2ccco2)CC1)Nc1c2c(nc3c1CCC3)CCCC2 | -17% |
| COCCCN=C1NN=C(c2cc(C)n(-c3ccccc3F)c2C)CS1 | -4% |
| COc1ccc(NC(=O)CCCn2c(=O)[nH]c3ccccc3c2=O)cc1 | -6% |
| CCN(CC)CCNC(=O)CCCCCn1c(=O)[nH]c2cc(C(=O)OC)ccc2c1=O | -10% |
| O=[N+]([O-])c1ccc(-c2cc(-c3ccc(Cl)cc3)n[nH]2)cc1 | ? |
| O=C(C1CCN(c2nnc(-n3cccc3)s2)CC1)N1CCN(Cc2ccc3c(c2)OCO3)CC1 | -11% |
| O=S1(=O)CCN2C(c3ccco3)=CSC2=N1 | 17% |
| COc1ccc(CCNC(=O)CC2SC(=NCCc3ccccc3)NC2=O)cc1 (stereo not drawn) | -3% |

| canonical_smiles | VDR inhibitor |
| --- | --- |
| Cc1oc(-c2cccc(Cl)c2)nc1CN1CCCC(C(=O)NC(C)c2ccc3c(c2)OCCO3)C1 (stereo not drawn) | -14% |
| CCCN(CCC)C(=O)Cn1c(=O)n(-c2cccc(OC)c2)c(=O)c2c(C)c(C(=O)N(C)C)sc21 | 10% |
| O=C(NCc1ccncc1)C1CCC(=O)N(CCc2ccc(Cl)cc2)C1 (stereo not drawn) | -4% |
| O=C(NCC(c1ccco1)N1CCCCC1)c1cccc(NS(=O)(=O)c2ccc(Br)cc2)c1 (stereo not drawn) | -6% |
| CCOc1ccc(-c2nnc(SCC(=O)c3ccccc3)n2-c2ccccc2)cc1 | 13% |
| Cc1ccccc1-c1noc(C(C)NC(=O)c2ccco2)n1 (stereo not drawn) | 1%&7% |
| CCC1CCc2c(sc3nc(SCC(=O)NCc4ccco4)n(-c4ccccc4)c(=O)c23)C1 (stereo not drawn) | -21% |
| CCOc1cccc(/C=N/NS(=O)(=O)c2ccc(C)c([N+](=O)[O-])c2)c1O | 15% |
| COc1ccc(NCC(=O)Nc2cccc(C(F)(F)F)c2)cc1S(=O)(=O)N1CCOCC1 | 0% |
| CCCN1CCN(CCCNC(=O)c2cc3c(s2)-c2c(C)cccc2OC3)CC1 | 5%&-9% |
| COc1ccc(C(=O)C2CCCN(Cc3cccn3-c3ccc(Cl)cn3)C2)c(OC)c1 (stereo not drawn) | -8% |
| Cc1cc(C)cc(NC(c2nnc(-c3cccc(F)c3)o2)c2ccc(F)cc2Cl)c1 (stereo not drawn) | 11% |
| O=C(Nc1ccccc1C(=O)OCc1cc(=O)n2ccsc2n1)c1ccccc1Cl | 11% |
| C/C(=N\NC(N)=S)c1ccncc1 | -10% |
| N#Cc1ccccc1S(=O)(=O)N1CCN(C(=O)Cc2coc3cc(O)ccc23)CC1 | -12% |

Part of the list above, with each value named.
molecule: O=S1(=O)CCN2C(c3ccco3)=CSC2=N1
  VDR inhibitor: 17%
molecule: COc1ccc(CCNC(=O)CC2SC(=NCCc3ccccc3)NC2=O)cc1 (stereo not drawn)
  VDR inhibitor: -3%
molecule: Cc1oc(-c2cccc(Cl)c2)nc1CN1CCCC(C(=O)NC(C)c2ccc3c(c2)OCCO3)C1 (stereo not drawn)
  VDR inhibitor: -14%
molecule: CCCN(CCC)C(=O)Cn1c(=O)n(-c2cccc(OC)c2)c(=O)c2c(C)c(C(=O)N(C)C)sc21
  VDR inhibitor: 10%

Next results follow:
| canonical_smiles | VDR inhibitor |
| --- | --- |
| COc1ccc2c(c1)c(C(C)=O)c(C)n2-c1ccccc1OC | -1% |
| Nc1c(Cl)ncnc1N/N=C/c1cccnc1 | -11% |
| CC1(c2ccccc2)NC(=O)N(CC(=O)Nc2ccc([N+](=O)[O-])cc2)C1=O (stereo not drawn) | 2% |
| CCN(Cc1cnn(C)c1)C(=O)c1cc(COc2ccc3c(c2)CCCC3)on1 | -12% |
| CCCCn1c(CCC(=O)O)ccc1-c1cccs1 | -11% |
| CN(CC(=O)O)Cc1nc2ccccc2[nH]1 | 10% |
| O=C(C1CC1)N1CCc2cc(Br)cc(S(=O)(=O)NC3CCCCC3)c21 | 12% |
| CN1CCC2(CC1)N=C(c1ccc(F)cc1)C(=S)N2C(=O)c1ccccc1 | 45µM* |
| O=c1c2oc3nc4c(cc3c2ncn1CCCc1ccccc1)CCCC4 | 2% |
| O=C(c1cccc([N+](=O)[O-])c1)c1ccc2c(c1)OCCOCCOCCO2 | 8% |
| CCOC(=O)c1[nH]ncc1CN1CCc2ccc(NC(=O)C3CCCO3)cc2C1 (stereo not drawn) | 0% |
| COc1ccccc1OCCNC(=O)Nc1cc(F)c(F)cc1Cl | 1% |
| Cc1cccc(-n2ccnc2SCC(=O)Nc2nnc(C)s2)c1 | -4% |
| COC(=O)Nc1c(-c2ccccc2)nc2ccc(C)cn12 | -3% |
| C=Cc1c(C)c2cc3[nH]c(cc4nc(cc5nc(cc1[nH]2)C(C)=C5CCC(=O)O)C(CCC(=O)O)=C4C)c(C)c3C=C | 14µM* |

Four of these compounds in another layout.
SMILES: Cc1cccc(-n2ccnc2SCC(=O)Nc2nnc(C)s2)c1
  VDR inhibitor: -4%

SMILES: COc1ccc2c(c1)c(C(C)=O)c(C)n2-c1ccccc1OC
  VDR inhibitor: -1%

SMILES: Nc1c(Cl)ncnc1N/N=C/c1cccnc1
  VDR inhibitor: -11%

SMILES: CCCCn1c(CCC(=O)O)ccc1-c1cccs1
  VDR inhibitor: -11%

(further entries)
| canonical_smiles | VDR inhibitor |
| --- | --- |
| CCOC(=O)c1ccc(NC(=O)Cn2c(=O)cc(C)c3c(C)nn(-c4cccc(F)c4)c32)cc1 | 5% |
| CCOc1ccc2nc(N3CCN(C(=O)c4ccc(S(=O)(=O)CC)cc4)CC3)sc2c1 | 7% |
| O=C(O)c1ccc(NS(=O)(=O)c2ccc3c(c2)C(=O)c2ccccc2C3=O)cc1 | 22% |
| COc1ccccc1N1CCN(c2ccc(NC(=O)c3ccc(C)cc3)cc2C(=O)O)CC1 | -2% |
| CC(C)=CC(=O)Nc1nnc(C(C)C)s1 | 15% |
| CC(=O)Nc1cccc(NC(=O)C2CCN(C(=O)c3ccco3)CC2)c1 | -8% |
| CCCc1ccc(-c2ccc(C(=O)Oc3ccc(OCC)cc3)cc2)nc1 | -19% |
| Nc1ccccc1S(=O)(=O)NC1=NCCCCC1 | -8% |
| CCN(CC#CCC(O)(c1ccccc1)c1ccccc1)C(C)C | -27% |
| Cc1c(-c2ccco2)[n+](=O)c2c(n1[O-])CCCCC2 | 5% |
| CCC(=O)NC(Nc1nc(C)cs1)(C(=O)OC)C(F)(F)F (stereo not drawn) | -8% |
| COc1ccc(CNC(=O)CN2C(=O)COc3ccc(S(=O)(=O)Nc4ccccc4)cc32)cc1 | 3% |
| O=C1NC(c2ccccc2)=NC1(Nc1ccccn1)C(F)(F)F (stereo not drawn) | -13% |
| CN1CCN(C(=S)NC(=O)/C=C/c2cccc3ccccc23)CC1 | -9% |
| Cc1ccc(OC(C)C(=O)Nc2ccccc2C(=O)NCc2cccnc2)cc1C (stereo not drawn) | -21% |

| canonical_smiles | VDR inhibitor |
| --- | --- |
| CCN(C(=O)COC(=O)CCC(=O)c1cccs1)c1ccccc1 | 8% |
| CCN(CC)S(=O)(=O)c1ccc(NC(=O)Cn2ncc3c([nH]c4ccccc43)c2=O)cc1 | 6% |
| O=S(=O)(Nc1ncccn1)c1ccc(NC(=S)N2CCN(c3cccc(C(F)(F)F)c3)CC2)cc1 | -10% |
| C1CCN(c2nc3nonc3nc2N2CCCCC2)CC1 | 10% |
| CCOC(=O)NC(=O)COC(=O)Cc1cc(OC)c(OC)c(OC)c1 | 4% |
| Cc1cc(N(CN2CCCC2=O)C(=O)c2ccc(F)cc2)no1 | -7% |
| Cc1cc(NCc2ccccc2)c2ccccc2n1 | 9% |
| O=c1c(NCc2cccs2)nccn1-c1ccc(F)cc1 | 0% |
| O=C(Cc1ccccc1)Nc1sc2c(c1C(=O)Nc1ccc(Cl)cc1)CCCC2 | 28µM* |
| Cc1ccc(C)c(S(=O)(=O)N2CCN(C(=O)Nc3ccccc3)CC2)c1 | 6% |
| COc1cc(OC)cc(C(=O)N2CCN(C(=O)c3ccc(-c4ccccc4)cc3)CC2)c1 | 0% |
| CCOC(=O)C1CCN(C(c2cccnc2)c2c(NC(=O)c3ccco3)sc(C)c2C)CC1 (stereo not drawn) | -23% |
| O=C(O)Cn1nc2c3c(cccc3c1=O)-c1ccccc1-2 | 4% |
